Sa RN4220 lethal: S. aureus RN4220 growth inhibition | OD600, 16 h | 330,000 tested, 0.33% active | inhibition, % (test concentration not listed);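 active = z-score of -3 or lower and OD600 up to 0.18 on both plates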;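 also: plate controls were untreated cells for no effect and reference antibiotic for full effect; stock transfer was 100 nL into about 80 µL; one replicate is shown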
Sa ugtP lethal: kills S. aureus RN4220 lacking UgtP; S. aureus RN4220 ugtP deletion, OD600 growth, 16 h; some inactives read as strong as hits; growth inhibition, % (concentration not given with the values); 330,000 tested, 0.54% active;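 active = z-score under -3 and OD600 up to 0.15 on both plates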;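 also: plate controls were untreated wells for no effect and antibiotic for full effect; wells of about 80 µL received 100 nL stock; the first replicate is given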
BJeLR viability: BJeLR cell viability loss; inhibition, % (test concentration not listed); 300,000 tested, 0.17% active; AID 1554; BJeLR (HRASV12) viability, CellTiter-Glo ATP luminescence, 48 h; reference of the scale not given here;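 active = replicate mean above 50%; inconclusive = above 50% but judged a plate artefact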;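 also: 50 nL library stock added to about 25 µL; numbers are from one replicate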
PrP 5UTR inh: suppresses PrP 5' UTR mRNA reporter expression; cell-based PrP 5' UTR mRNA reporter, plate reader; inhibition, % (test concentration not listed); 340,000 tested, 0.35% active;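 active = every replicate at 50% or more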;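 also: 0 = median of the neutral control wells; tested in H4 reporter cells; numbers are from one replicate; inactives centre near -14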
Autofluor counter: counter-screen for toxin protease inhibitors: compound fluorescence; 360,000 tested, 3.1% active; AID 624483; fluorescence intensity (test concentration not listed); compound autofluorescence counterscreen, microsphere flow cytometry; active compounds read high;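 active = at least 3 SD above the mean of all compounds, about 16000 in these data; inconclusive = too few beads counted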;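 also: 100 nL of 1 mM stock went into each well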
Mtb hypoxia inh: Mtb hypoxia fluorescent reporter inhibition | M. tuberculosis hypoxia-regulated fluorescent reporter, fluorescence | fluorescence inhibition, % (test concentration not listed) | 300,000 tested, 0.1% active | AID 1159583;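 active = 35 to 45% if threefold the growth effect, above 45% if 1.5-fold the growth effect; inactive = the rest, general growth blockers included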;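 also: wells of about 50 µL received 100 nL stock; 0% = vehicle wells and 100% = reference inhibitor wells; whole bacteria with a GFP reporter of the hypoxia response; strong numbers were not always called active; many hits fall short of the cut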
Mtb hypoxia inh growth: also measured in Mtb hypoxia inh; calls as there; growth inhibition, %; measured here: M. tuberculosis growth (absorbance);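 0% = vehicle and 100% = reference antibiotic; read after six days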
* hit, by the source's call.

`COc1ccc(-n2c(=O)c3ccccc3n(CC(=O)c3ccccc3)c2=O)cc1OC` gave Sa RN4220 lethal 0.9, Sa ugtP lethal 0.6, BJeLR viability -3.1, PrP 5UTR inh -13.9, Autofluor counter 5550, Mtb hypoxia inh 0.9 and Mtb hypoxia inh growth -5.5.
For O=C1CS/C(=N/N=Cc2ccccc2OS(=O)(=O)c2ccccc2)N1 the results were Sa RN4220 lethal 15.8, Sa ugtP lethal -4.8, Mtb hypoxia inh 15.2 and Mtb hypoxia inh growth 6.2.
`COc1cc(OC)cc(C(C)=O)c1` gave Sa RN4220 lethal -1.5, Sa ugtP lethal 0.2, BJeLR viability 4.8, PrP 5UTR inh 2.9, Autofluor counter 4207, Mtb hypoxia inh 8.7 and Mtb hypoxia inh growth -0.3.
For Cc1ccc2c(CC(=O)N3CCOCC3)coc2c1 the results were Sa RN4220 lethal 4.0, Sa ugtP lethal 9.4, BJeLR viability 7.2, PrP 5UTR inh -10.3, Autofluor counter 2057, Mtb hypoxia inh -3.5 and Mtb hypoxia inh growth 0.5.
Screening COc1ccc(CN2CCC(=O)N(C(CO)Cc3ccccc3)CC2)cc1OC (stereo unspecified) returned Sa RN4220 lethal -1.4, Sa ugtP lethal 0.5, Mtb hypoxia inh 0.4 and Mtb hypoxia inh growth 9.0.
For O=C(Nc1nnc(C(F)(F)F)s1)c1ccc(N2C(=O)C3C4C=CC(C4)C3C2=O)cc1 (stereo unspecified) the results were Sa RN4220 lethal 6.2, Sa ugtP lethal 3.7, BJeLR viability 3.5, PrP 5UTR inh -7.3, Autofluor counter 10034, Mtb hypoxia inh 4.0 and Mtb hypoxia inh growth 5.1.
Screening COc1ccc(OC)c(C(=O)c2c(C)oc3cc([N+](=O)[O-])c(O)c([N+](=O)[O-])c23)c1 returned Sa RN4220 lethal 0.6, Sa ugtP lethal 1.4, BJeLR viability 10.4, PrP 5UTR inh -13.5, Autofluor counter 5160, Mtb hypoxia inh 8.7 and Mtb hypoxia inh growth -6.9.
Screening COC(=O)c1cc(NC(=O)CN(C)Cc2ccccc2)cc(C(=O)OC)c1 returned Sa RN4220 lethal 4.2, Sa ugtP lethal 8.9, BJeLR viability -6.6, PrP 5UTR inh -20.0, Autofluor counter 5285, Mtb hypoxia inh 16.2 and Mtb hypoxia inh growth 2.1.
COc1ccc(OC)c(S(=O)(=O)N2CCC(C(=O)Nc3cccc(C)c3)CC2)c1 was read as Sa RN4220 lethal 2.8, Sa ugtP lethal -5.3, BJeLR viability -8.1, PrP 5UTR inh -7.4, Autofluor counter 9760, Mtb hypoxia inh -0.4 and Mtb hypoxia inh growth 7.9.
Screening C/C(=N\OC(=O)c1ccccc1)c1c(C)nc2cc(C)ccn12 returned BJeLR viability 5.0, PrP 5UTR inh -8.0 and Autofluor counter 3378.
For COc1cc(Cl)cc(NC(=O)CCN2CCN(C)CC2)c1 the results were Sa RN4220 lethal 6.2, Sa ugtP lethal -7.4, BJeLR viability -1.0, PrP 5UTR inh -3.8, Autofluor counter 9871, Mtb hypoxia inh 2.0 and Mtb hypoxia inh growth 13.9.
For CCCCn1c(SCC(=O)Nc2ccc(C)c(S(=O)(=O)N3CCOCC3)c2)nnc1C(CC)N(C)C (stereo unspecified) the results were Sa RN4220 lethal 5.9, Sa ugtP lethal -0.3, BJeLR viability -8.1, PrP 5UTR inh -19.5, Autofluor counter 5382, Mtb hypoxia inh 3.9 and Mtb hypoxia inh growth -2.0.
`CCC(CC)=NNc1ccc([N+](=O)[O-])cc1[N+](=O)[O-]` gave Sa RN4220 lethal 5.5, Sa ugtP lethal -7.3, BJeLR viability -9.1, PrP 5UTR inh 7.5, Autofluor counter 2129, Mtb hypoxia inh 9.2 and Mtb hypoxia inh growth 5.6.
For Cc1ccc(S(=O)(=O)N2CCCC2)cc1C(=O)NCCN1CCOCC1 the results were Sa RN4220 lethal 2.1, Sa ugtP lethal 3.9, BJeLR viability 4.6, PrP 5UTR inh -11.0, Autofluor counter 5730, Mtb hypoxia inh 1.4 and Mtb hypoxia inh growth 13.3.
For O=C(c1cc2cc(F)ccc2[nH]1)N(Cc1cccnc1)CC1CCCN(C2CCCCC2)C1 (stereo unspecified) the results were Sa RN4220 lethal 1.1, Sa ugtP lethal 12.0, BJeLR viability 9.3, PrP 5UTR inh -33.3, Autofluor counter 8632, Mtb hypoxia inh -2.9 and Mtb hypoxia inh growth 9.4.
CCC1CN(C(=O)NCc2ccc(F)cc2)c2ccccc2O1 (stereo unspecified) was read as Sa RN4220 lethal 3.8, Sa ugtP lethal 6.9, BJeLR viability 5.2, PrP 5UTR inh -20.2, Autofluor counter 3899, Mtb hypoxia inh 14.7 and Mtb hypoxia inh growth 9.0.
`O=S(=O)(Nc1nc2ccccc2s1)c1ccc(Cl)nc1` gave Sa RN4220 lethal 4.0, Sa ugtP lethal 16.5, BJeLR viability -6.9, PrP 5UTR inh -14.9, Autofluor counter 4442, Mtb hypoxia inh -9.4 and Mtb hypoxia inh growth -1.2.
For Cc1c2cnn(-c3ccccc3)c(=O)c2c(C)n1CCCC(=O)N1CCN(C)CC1 the results were Sa RN4220 lethal -10.1, Sa ugtP lethal -6.9, BJeLR viability -0.7, PrP 5UTR inh -30.1, Autofluor counter 5848, Mtb hypoxia inh 5.5 and Mtb hypoxia inh growth 7.5.
CC(C)Nc1nc(NNc2nc(Cl)nc(NC(C)(C)C)n2)nc(NC(C)C)n1 was read as Sa RN4220 lethal 2.8, Sa ugtP lethal 0.7, BJeLR viability -8.5, Autofluor counter 5329, Mtb hypoxia inh 8.7 and Mtb hypoxia inh growth 5.0.
`CC(C)(C)NC(=O)NC(=O)COC(=O)c1cc(=O)[nH]c2ccccc12` gave Sa RN4220 lethal -4.5, Sa ugtP lethal -1.0, BJeLR viability -9.1, PrP 5UTR inh -8.8, Autofluor counter 3908, Mtb hypoxia inh 12.6 and Mtb hypoxia inh growth 0.4.
Screening Cc1cc(C)n2nc(SCCOc3ccccc3)nc2n1 returned Sa RN4220 lethal 2.1, Sa ugtP lethal 1.6, BJeLR viability -1.3, PrP 5UTR inh -12.0, Autofluor counter 4471, Mtb hypoxia inh 3.5 and Mtb hypoxia inh growth -3.1.
Screening CCn1nc(C)c(CN2CCCC(CO)(Cc3cccc(Cl)c3)C2)c1C (stereo unspecified) returned Sa RN4220 lethal 3.4, Sa ugtP lethal 8.6, BJeLR viability 3.5, PrP 5UTR inh -6.9, Autofluor counter 3710, Mtb hypoxia inh 5.7 and Mtb hypoxia inh growth 5.4.
For COCCNC(=O)CCCn1c(=O)c2ccccc2n(Cc2cccc([N+](=O)[O-])c2)c1=O the results were Sa RN4220 lethal 5.6, Sa ugtP lethal 12.6, BJeLR viability 21.2, PrP 5UTR inh -8.8, Autofluor counter 5595, Mtb hypoxia inh 9.5 and Mtb hypoxia inh growth 9.4.
Screening CC(C)Cc1nc(Nc2ccccc2C#N)c2nnn(Cc3ccccc3)c2n1 returned Sa RN4220 lethal -2.5, Sa ugtP lethal 3.7, BJeLR viability -9.9, PrP 5UTR inh -44.4, Autofluor counter 3340, Mtb hypoxia inh 1.5 and Mtb hypoxia inh growth 11.4.
COc1ccc(CNC(=O)[C@@H](NC(=O)C2CCN(C(=O)[C@@H]3CCCN3C(=O)OC(C)(C)C)CC2)C(C)C)cc1 was read as Sa RN4220 lethal 7.1, Sa ugtP lethal -8.7, BJeLR viability 2.3, PrP 5UTR inh 4.5 and Autofluor counter 5662.
CC1=NN(C(N)=S)C(=O)C1N=Nc1ccc([N+](=O)[O-])cc1 (stereo unspecified) was read as Sa RN4220 lethal 0.8, Sa ugtP lethal 4.0, BJeLR viability -0.7, PrP 5UTR inh -34.9, Autofluor counter 3310, Mtb hypoxia inh 14.5 and Mtb hypoxia inh growth 1.3.
Screening Cc1ccc(SCCCCN2CCOCC2)cc1 returned Sa RN4220 lethal -0.8, Sa ugtP lethal -4.6, BJeLR viability -1.3, PrP 5UTR inh -16.9, Autofluor counter 3920, Mtb hypoxia inh 0.0 and Mtb hypoxia inh growth 14.4.
`CCN(CC)C(=S)NC(=O)c1cc(OC)c(OC)c(OC)c1` gave Sa RN4220 lethal 8.5, Sa ugtP lethal -1.8, BJeLR viability -6.5, PrP 5UTR inh -22.3, Autofluor counter 3320, Mtb hypoxia inh 4.2 and Mtb hypoxia inh growth 1.0.
Cc1cc(C(=O)Nc2nccs2)c2cc(F)ccc2n1 was read as Sa RN4220 lethal 5.6, Sa ugtP lethal 10.6, BJeLR viability 3.7, PrP 5UTR inh -15.4, Autofluor counter 3076, Mtb hypoxia inh 16.3 and Mtb hypoxia inh growth 1.5.
For C=CCC(C(=O)OC)(C(=O)OC)c1ccc(C(F)(F)F)cc1[N+](=O)[O-] the results were Sa RN4220 lethal -4.2, Sa ugtP lethal 1.5, BJeLR viability -0.7, PrP 5UTR inh -10.6, Autofluor counter 4370, Mtb hypoxia inh -0.3 and Mtb hypoxia inh growth 1.1.
Screening CC(=O)N1CCN(C(=O)COC(=O)COc2ccc(C#N)cc2)CC1 returned Sa RN4220 lethal 2.6, Sa ugtP lethal 5.8, BJeLR viability 1.3, PrP 5UTR inh -25.4, Autofluor counter 4939, Mtb hypoxia inh 1.1 and Mtb hypoxia inh growth -4.9.
Screening Cc1ccc(C=NNC(=O)c2cc3c(ccc4ccccc43)o2)o1 returned Sa RN4220 lethal 3.4, Sa ugtP lethal -6.4, Mtb hypoxia inh 8.2 and Mtb hypoxia inh growth -1.9.
c1ccc2c(c1)NC(CN1CCOCC1)CO2 (stereo unspecified) was read as Sa RN4220 lethal -1.2, Sa ugtP lethal -8.0, BJeLR viability 5.0, PrP 5UTR inh 6.4 and Autofluor counter 4692.
CCCOc1ccc(NC(=O)C2CC(=O)N/C(=N/N=C(C)/C=C/c3ccc(N(C)C)cc3)S2)cc1 (stereo unspecified) was read as Sa RN4220 lethal -11.0, Sa ugtP lethal -10.0, BJeLR viability -4.4, PrP 5UTR inh -55.7, Autofluor counter 10003, Mtb hypoxia inh 9.1 and Mtb hypoxia inh growth 17.5.
CN1CCN(S(=O)(=O)c2ccc3c4c(cccc24)C(=O)N3)CC1 was read as Sa RN4220 lethal 8.1, Sa ugtP lethal 6.7, BJeLR viability 2.9, PrP 5UTR inh -26.0, Autofluor counter 5105, Mtb hypoxia inh 7.2 and Mtb hypoxia inh growth 9.9.
CN(Cc1ccccc1)S(=O)(=O)c1cc2c3c(c1)CCN3C(=O)CC2 was read as Sa RN4220 lethal 4.3, Sa ugtP lethal 16.4, BJeLR viability 4.9, PrP 5UTR inh -19.3, Autofluor counter inconclusive, Mtb hypoxia inh 8.3 and Mtb hypoxia inh growth 0.0.
`Clc1ccccc1/C=C/c1nc(-c2cccnc2)no1` gave Sa RN4220 lethal 6.8, Sa ugtP lethal 7.6, BJeLR viability -1.8, PrP 5UTR inh -70.0, Autofluor counter 4697, Mtb hypoxia inh 0.2 and Mtb hypoxia inh growth -2.6.
`CCc1c(C)c2ccc(O)c(CN(C)C)c2oc1=O` gave Sa RN4220 lethal 0.7, Sa ugtP lethal -1.3, BJeLR viability 13.7, PrP 5UTR inh 1.5, Autofluor counter 22113*, Mtb hypoxia inh -1.9 and Mtb hypoxia inh growth -3.1.
`Clc1ncc(CSc2ccccc2)s1` gave Sa RN4220 lethal 10.5, Sa ugtP lethal 3.2, BJeLR viability 7.7, PrP 5UTR inh -22.5, Autofluor counter 4509, Mtb hypoxia inh 15.2 and Mtb hypoxia inh growth 2.9.
`CN(C)S(=O)(=O)c1ccc(C(=O)Nc2ccccc2F)cc1` gave Sa RN4220 lethal -3.7, Sa ugtP lethal 8.0, BJeLR viability -31.9, PrP 5UTR inh -19.5, Autofluor counter 16551*, Mtb hypoxia inh 5.5 and Mtb hypoxia inh growth 9.9.
`Nc1c(C(=O)NN=Cc2ccc([N+](=O)[O-])cc2)cnn1-c1ccccc1` gave Sa RN4220 lethal -3.9, Sa ugtP lethal -1.6, Mtb hypoxia inh -1.2 and Mtb hypoxia inh growth 13.0.

Outcome played no part in choosing rows (roughly 4.1% active in at least one column).
